YjeE inh: YjeE (TsaE) inhibition, E. coli. purified YjeE, fluorescence polarisation of a bound ADP probe. P0AF67. Potency, µM. 71,000 compounds, 0.05% hits; active = well fitted falling curve; inconclusive = weaker or top-dose-only fall, or a rising curve; inactive = flat or poorly fitted curve;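 note: top concentration of the series not given in the record; excess ADP was the control for the full effect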
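Fluorescence polarization of a BODIPY Texas Red–ADP probe (2 uM) bound to purified YjeE (10 uM) was read after 15 min room-temperature incubation with compounds. Loss of polarization marks inhibitors; ADP serves as titrated control.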
Bst PK mod: pyruvate kinase (B. stearothermophilus) modulation; 51,000 compounds, 1.2% hits; partly purified Bacillus stearothermophilus pyruvate kinase, luminescence ATP production; ribose 5-phosphate activator present at AC10; AID 361; Potency, µM; in the data active means potency below about 11 µM; inconclusive means mostly about 12 µM to 25 µM; inactive means weaker than that;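 the screen sought inhibitors and activators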;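 note: potency is the fitted concentration of half-maximal effect; scaled between full activation by ribose 5 phosphate and full inhibition by luteolin; about four in five hits inhibit and the cells do not say which; series up to 57 µM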
* = called active by the depositor; i = inactive; ? = inconclusive; / = no result given. A portion of the library; count on the stated rates, not on these rows.

Below each compound: Bst PK mod | YjeE inh
1) Cc1cc2c(c(C)nn2-c2ccccc2)c(=O)o1
    >57 | i
2) O=C1c2cccnc2C(O)N1Cc1cccs1 (centres undefined)
    >57 | i
3) CCOC(=O)Cc1csc(NC(=O)CCN2C(=O)c3ccccc3C2=O)n1
    / | i
4) Cc1sc2nc(SCC(=O)NCc3ccco3)[nH]c(=O)c2c1C
    / | i
5) O=C(c1ccncc1)N1CCC2(CC1)CN(c1ccc(-c3ccccc3)cc1)C2
    / | i
6) CCC(Sc1nnnn1-c1ccccc1)C(=O)Nc1nc2ccccc2s1 (centres undefined)
    / | i
7) Cc1cc(C(=O)COC(=O)Cn2cnc3c2c(=O)n(C)c(=O)n3C)c(C)n1C
    >57 | i
8) CCOC(=O)c1ccc(N2Cc3ccccc3C2)cc1O
    / | i
9) O=C(CCCn1c(=S)[nH]c2ccccc2c1=O)N1CCCCC1
    >57 | i
10) O=C(O)CP(=O)(O)O
    / | i
11) CCC(Sc1nnnn1-c1ccccc1)C(=O)NC(C)c1ccccc1 (centres undefined)
    >57 | i
12) Cc1cc(NC(=O)c2ccc3nc(-c4ccccc4)c(-c4ccccc4)nc3c2)no1
    >57 | i
13) Cc1cccc(OCc2nnc(SCc3cc(=O)n4cc(Br)ccc4n3)o2)c1
    >57 | i
14) COc1ccc(-c2noc(-c3ccccc3F)n2)cc1
    / | i
15) CCN(CC)S(=O)(=O)c1ccc2[nH]cc(C(=O)NCCN3CCCCCC3)c(=O)c2c1
    >57 | i
16) O=C(CN(Cc1ccco1)C(=O)c1cc(=O)[nH]c2ccccc12)Nc1ccccc1Br
    >57 | i
17) CCNC(=O)C1CCN(S(=O)(=O)c2ccc(F)cc2)CC1
    >57 | i
18) CSCCC(NS(=O)(=O)c1ccc(Cl)cc1)C(=O)OCC(=O)N1CCOCC1 (centres undefined)
    >57 | i
19) O=C(c1ccccc1S(=O)(=O)NCc1ccccc1)N1CCCCC1
    / | i
20) COc1ccc(-c2nnc3sc(-c4ccco4)nn23)cc1OC
    >57 | i

The final 3 records of the part above open the next one:
Below each compound: Bst PK mod | YjeE inh
18) CSCCC(NS(=O)(=O)c1ccc(Cl)cc1)C(=O)OCC(=O)N1CCOCC1 (centres undefined)
    >57 | i
19) O=C(c1ccccc1S(=O)(=O)NCc1ccccc1)N1CCCCC1
    / | i
20) COc1ccc(-c2nnc3sc(-c4ccco4)nn23)cc1OC
    >57 | i
21) CCN(CC)CCCN(C(C)=O)c1nc(-c2cc(OC)ccc2OC)cs1
    >57 | i
22) O=C(Cc1cccs1)Nc1nnc(SCC(=O)N2CCCCC2)s1
    >57 | i
23) O=C(CCCCCN1C(=O)c2ccccc2C1=O)Nc1ccc(S(=O)(=O)N2CCCCC2)cc1
    >57 | i
24) CCCCN(C)C(=O)c1ccc(CS(=O)(=O)c2ccccc2C)o1
    / | i
25) Cn1c(=O)cc(OCCCC(=O)N2CCCCC2)c2ccccc21
    >57 | i
26) O=C(c1ccncc1)N1CCC[C@@]2(CCN(Cc3ccncc3)C2)C1
    / | i
27) CCOC(=O)N1CCN(CCC(=O)Nc2ccc(OC(F)(F)F)cc2)CC1
    >57 | i
28) CC(=O)c1cc2c(cc1NC(=O)CSc1nnc(C)s1)OCO2
    >57 | i
29) Fc1ccc(-c2nc3nc4ccccc4nc3n2Cc2ccco2)cc1
    >57 | i
30) O=C(NC1CCCCCC1)C1CCCN(S(=O)(=O)c2cccs2)C1 (centres undefined)
    >57 | i
31) O=C(Nc1ccc(Cl)cc1)N(Cc1cccs1)Cc1cccs1
    / | i
32) Cn1c(=O)oc2cc(S(=O)(=O)N3CCc4ccccc4C3)ccc21
    / | i
33) O=C(c1cccc(F)c1)N1C2C=CC(C2)C1(C(F)(F)F)C(F)(F)F (centres undefined)
    >57 | i
34) CCOc1cc(C(N)=O)cc(OCC)c1OCC
    / | i
35) CCOC(=O)C1CCN(CC(O)COc2ccc(C(C)(C)CC)cc2)CC1 (centres undefined)
    >57 | i
36) CC1CCCCN1CCNC(=O)C1CCN(S(=O)(=O)c2cccc3cccnc23)CC1 (centres undefined)
    / | i
37) CCOc1ccc(C(=O)Nc2nncs2)cc1OCC
    >57 | i
38) COC(=O)Nc1ccc2c(c1)N(C(=O)CCN1CCN3CCCC3C1)c1ccccc1CC2 (centres undefined)
    >57 | i
39) Cc1oc2c(C)c3oc(=O)c4c(c3cc2c1C)CCC4
    >57 | i
40) Cc1noc(C)c1-c1cc(Nc2ccc(F)cc2)ncn1
    / | i
41) CCCN1/C(=C(/C#N)C2=NS(=O)(=O)c3ccccc32)N(C)c2ccccc21
    >57 | i
42) Cc1ccc2c(c1)c(C)c(C)n2CC(O)Cn1nc(C)c(Br)c1C (centres undefined)
    >57 | i
43) Cc1ccccc1CN1CCCNC1=O
    >57 | i
44) CCCSC1=C(C#N)C(c2ccccc2C)CC(=O)N1 (centres undefined)
    >57 | i
45) COc1ccc(NC(=O)c2ccccc2C)c(OC)c1
    / | i
46) CC(C)OC(=O)CSc1ncnc2c1cnn2Cc1ccccc1
    >57 | i
47) Fc1ccccc1C(c1nnnn1Cc1ccc2c(c1)OCO2)N1CCN(Cc2ccccc2)CC1 (centres undefined)
    >57 | i
48) CCOC(=O)N1CCN(S(=O)(=O)c2cc(OCC)ccc2OCC)CC1
    >57 | i
49) Cn1c(=O)c2c(nc(CN3CCN(CCO)CC3)n2Cc2cccc3ccccc23)n(C)c1=O
    >57 | i
50) CCN(CC)CCN1C(=O)C(O)=C(C(=O)c2ccc(C)o2)C1c1ccccn1 (centres undefined)
    >57 | i
51) CC(C)C1Oc2ccccc2N(CC(=O)N(Cc2ccccn2)CC2CCCO2)C1=O (centres undefined)
    >57 | i
52) Cc1nc(N2CCN(C)CC2)c2sc(=S)n(-c3ccccc3)c2n1
    / | i
53) Cc1cccc(-n2c(N)cc(=O)nc2SC(C)C(=O)NC2CCCCC2)c1 (centres undefined)
    >57 | i
54) Cc1ccc(C)c(C(=O)CSc2n[nH]c(C)n2)c1
    / | i
55) CCN1CCN(Cc2ccc(NC(=O)Nc3cccs3)cc2)CC1
    ? | i
56) CCCCCCCCCC(=O)O[C@H](CC(=O)O)C[N+](C)(C)C
    / | i
57) Cc1onc(-c2ccccc2)c1C(=O)Nc1ccccc1C#N
    / | i
58) Cc1nn(C)cc1CNC(=O)c1cnn2c1NC(c1ccc(Br)cc1)CC2C(F)(F)F (centres undefined)
    >57 | i
59) Cc1ccc2c(C)nc(Nc3nc(CSc4nnnn4-c4ccccc4)cc(=O)[nH]3)nc2c1
    >57 | i
60) N#CC(C(=O)Nc1ccc(Cl)c(Cl)c1)=C1Nc2ccccc2N1
    >26 | /
61) CCCCNC(=O)CC1N=C2c3ccccc3N=C(SCC(=O)Nc3cccc(C)c3)N2C1=O (centres undefined)
    >57 | i
62) COc1ccc(NC(=O)CN(c2cc(C)cc(C)c2)S(=O)(=O)c2c(C)n[nH]c2C)cc1
    / | i
63) Cc1ccc2nc(NC3=NCN(Cc4ccco4)CN3)nc(C)c2c1
    / | i
64) Cc1cc(/C=N/n2cnnc2)c(C)n1-c1ccc(OCc2ccccc2F)cc1
    / | i
65) COC(=O)Nc1nnc(Cc2ccccc2)s1
    >57 | i
66) Cc1ccccc1-c1ccc2ncnc(N3CCNCC3)c2c1
    / | i
67) Cc1cc(C)c(C#N)c(SCc2ccc3c(c2)OCO3)n1
    >57 | i
68) Fc1ccc(-n2c(-c3ccco3)nc3nc4ccccc4nc32)cc1
    >57 | i
69) O=C(C1CC(c2ccc(F)cc2)=NO1)N1CCN(c2ccccc2)CC1 (centres undefined)
    / | i
70) COc1ccccc1NC(=O)C(C)NS(=O)(=O)c1ccc(Cl)cc1 (centres undefined)
    >57 | i

Next part
Below each compound: Bst PK mod | YjeE inh
71) O=C(C1CC1)n1cc(C(=S)N2CCOCC2)c2ccccc21
    >57 | i
72) O=S(=O)(Nc1ncnc2sc3c(c12)CCC3)c1ccc(Cl)s1
    >57 | i
73) Cc1ccc(OCCn2c(NC(=O)c3ccco3)nc3ccccc32)cc1
    >57 | i
74) CCOc1ccc2nc(N3CCC(C(=O)N4CCN(c5ccccn5)CC4)CC3)sc2c1
    / | i
75) CCOC(=O)c1c(-c2ccco2)csc1N
    >57 | i
76) C[N+](C)(C)CCOC(=O)CCC(=O)OCC[N+](C)(C)C
    / | i
77) CCOc1cc(C)c(Cl)cc1S(=O)(=O)N(C)C
    >57 | i
78) Cc1ccccc1Cn1c(=N)n(CC(O)c2ccco2)c2ccccc21 (centres undefined)
    >57 | i
79) CC(C)(C)C1(c2ccccc2)NC(=O)N(CC(=O)N2CCOCC2)C1=O (centres undefined)
    >57 | i
80) Cc1cc(N2CCN(C(=O)c3ccco3)CC2)n2nc(C)c(-c3ccccc3)c2n1
    >57 | i
81) O=C(NCc1cccs1)c1nc2c(nnn2Cc2ccccc2Cl)c(=O)[nH]1
    ? | i
82) C=CCOc1ccc(C2C(C(=O)c3ccco3)=C(O)C(=O)N2Cc2cccnc2)cc1 (centres undefined)
    >57 | i
83) CCCCCOc1ccc(C2NC(=O)NC2=O)cc1 (centres undefined)
    / | i
84) COc1cc2nc(-c3ccccc3)nc(N3CCCC3)c2cc1OC
    >26 | /
85) c1ccc(-n2c(SCC3CCCCO3)nnc2-c2cnccn2)cc1 (centres undefined)
    >57 | i
86) CCOc1ccccc1NC(=O)CN(C)S(=O)(=O)c1ccc(OC)c(C)c1
    >57 | i
87) Cc1cc(C)nc(/N=C(\N)C2=C(O)CC(C)(C)CC2=O)n1
    / | i
88) Nc1nc(Nc2cccc(F)c2)nc2ccccc12
    9.4* | i
89) CC(=O)N1CC=C2C(C#N)=C(N)C(C#N)(C#N)C(CCc3ccccc3)C2C1 (centres undefined)
    >57 | i
90) CNc1ncncc1-c1ccc(C(=O)N(C)C)cc1
    / | i
91) CCOc1ncccc1C(=O)Oc1ccc2c(c1)OCO2
    >57 | i
92) COCCCNc1ccnc2c(Cl)cccc12
    / | i
93) Cc1nc2cnc(N3CCNCC3)nc2n(Cc2cccs2)c1=O
    / | i
94) O=c1cc(CSc2ccccn2)[nH]c(=O)[nH]1
    >57 | i
95) Cc1cc(-c2ccccc2N)n[nH]1
    >11 | i
96) CCOC(=O)CSc1nnc(CNC(=O)c2ccc(OC)c(OC)c2)n1C
    >57 | i
97) CSCCC(NC(=O)C1CCC(C)CC1)C(=O)NCc1ccco1 (centres undefined)
    >57 | i
98) Cc1nnc(SCCn2c(N3CCC(Cc4ccccc4)CC3)nc3c2c(=O)[nH]c(=O)n3C)s1
    >57 | i
99) Cc1nc(NCCO)c2nc(-c3ccccc3)n(CCCN(C)C)c2n1
    / | i
100) CC(NC(=O)NC(N)=O)(C(F)(F)F)C(F)(F)F
    >26 | /
101) O=C(CCSc1nc(-c2ccco2)cc(C(F)(F)F)n1)N1CCN(c2ccccn2)CC1
    >57 | i
102) COc1ccc(-n2c(=O)c(C)nc3cnc(OC)nc32)cc1
    / | i
103) C=C(C)c1cccc(C(C)(C)NC(=O)N2CCCC(C(N)=O)C2)c1 (centres undefined)
    >57 | i
104) O=C1CC(c2ccccc2)n2nc(NC(=O)C3CCCO3)nc2N1 (centres undefined)
    >57 | i
105) CSC1=C(C#N)C(c2ccccc2Cl)C2=C(CCCC2=O)N1 (centres undefined)
    >57 | i
106) c1ccc2c(c1)nc1sccn12
    >57 | i
107) O=C(Nc1ccc2c(c1)nc1n2CCSC1)c1ccccc1
    ? | i
108) CC(=O)c1cccc(NC(=O)Nc2cc3sccc3n2C)c1
    / | i
109) N#Cc1cccc(CSc2nnc(CCCO)n2-c2ccccc2)c1
    / | i
110) Cc1ccc2nc(C3CCCN(C(=O)NCc4ccccc4)C3)[nH]c2c1 (centres undefined)
    >11 | i
111) CCOC(=O)C1CCN(C(=O)COC(=O)COc2ccccc2OC)CC1
    >57 | i
112) C=CCNc1ncnc2c1cnn2-c1ccc(C)cc1C
    / | i
113) O=c1cc(CSc2nnc(-c3ccccc3)o2)c2ccccc2[nH]1
    / | i
114) CCC(=O)Nc1c(C)ccc2nsnc12
    / | i
115) CS(=O)(=O)NCC(c1cccnc1)N1CCN(c2ccc(F)cc2)CC1 (centres undefined)
    >57 | i
116) N#CC1=C(N)Oc2n[nH]c(-c3ccccc3)c2C1c1cccc(OC(=O)N2CCOCC2)c1 (centres undefined)
    / | i
117) N#CC1(C#N)C2=C(CCCC2)NC(c2ccccc2)C1(C#N)C#N (centres undefined)
    >57 | i
118) O=C(CCn1nnc2ccccc21)Nc1nnc(COc2ccc(F)cc2)s1
    >57 | i
119) COc1ccc(-n2nnnc2SCC(=O)Nc2ccc3c(c2)OCCO3)cc1OC
    >57 | i
120) COc1ccc(N(C(=O)c2ccco2)C(C(=O)NC2CCCC2)c2ccc(N(C)C)cc2)cc1 (centres undefined)
    >57 | i

Complete entries, looked up by structure. Order of screens: Bst PK mod	YjeE inh
O=C(CCn1nnc2ccccc21)Nc1nnc(COc2ccc(F)cc2)s1 in the list: >57	i
COc1ccc(N(C(=O)c2ccco2)C(C(=O)NC2CCCC2)c2ccc(N(C)C)cc2)cc1 (centres undefined) in the list: >57	i
CCC(=O)Nc1c(C)ccc2nsnc12 in the list: /	i
O=c1cc(CSc2nnc(-c3ccccc3)o2)c2ccccc2[nH]1 in the list: /	i
CS(=O)(=O)NCC(c1cccnc1)N1CCN(c2ccc(F)cc2)CC1 (centres undefined) in the list: >57	i

Continuation.
Below each compound: Bst PK mod | YjeE inh
121) Cc1noc(/C=C/N(C)C)c1S(=O)(=O)N1CCCC(C(=O)N2CCCCC2)C1 (centres undefined)
    / | i
122) CCSC1=C(C#N)C(c2cccc(OC)c2)CC(=O)N1 (centres undefined)
    >57 | i
123) CC1Cc2ccccc2N1S(=O)(=O)c1cccc(C(=O)NC2CC2)c1 (centres undefined)
    >57 | i
124) C#CCNc1nc(CC)nc2c1nnn2Cc1ccccc1F
    >57 | i
125) CN(C)C(=O)c1cc(S(=O)(=O)N(C)C)c(Cl)cc1N1CCCC1
    >57 | i
